Assay outcomes (PubChem BioAssay)
N370S GC mod: N370S glucocerebrosidase modulation, Gaucher chaperone candidate | P04062 | N370S GC spleen homogenate, 4MU-glucoside fluorescence | Potency, µM (doses to about 59.4 µM), for inactives: at the top dose activity change, negative = inhibition, hits mostly inhibitors | hit rate 0.092% among 330,000; active = well fitted inhibition curve with a large enough effect; inconclusive = small, poorly fitted or top-dose-only effect, or effect the other way, or another doubt; inactive = no such curve, though single readings can be large or run the other way;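 note: 0% = full enzyme activity and -100% = no enzyme basal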
The depositor's hits bear a star; ? = inconclusive; & = joins results of further samples; [ ] = another dose, or the depositor's remark. Potency is the fitted concentration of half-maximal effect.

N370S GC mod	Molecule
5%	CCN(N=O)[C@@H](Cc1ccccc1)CN(N=O)[C@@H](Cc1ccccc1)CN(C)N=O
17%	O=C(CNC(=O)c1ccccc1Cl)OC1CCOC1=O (stereo not drawn)
-1%	O=C(NCc1ccccc1)c1ccc2nc(-c3ccco3)c(-c3ccco3)nc2c1
-12%	NC(=O)C1CCN(C(=O)c2cccc(S(=O)(=O)N3CCc4ccccc4C3)c2)CC1
2%	CC(C)Oc1cccc(C(=O)Nc2ccc(NC(=O)c3ccco3)cc2)c1
-2%	O=C(CCc1c[nH]c2ccccc12)Nc1ncccc1O
21%	Cc1ccccc1C(=O)NNC(=S)NC(=O)COc1ccccc1
-8%	Cc1cccc(C(=O)NNC(=O)/C=C/C(=O)O)c1
0%	CCN(CC)C1CCN(C(=O)CCn2nnnc2CN2CCOCC2)C1 (stereo not drawn)
1%	C=CCn1c(SCC(=O)NCCc2ccccc2)nnc1C1CC1
-1%	COc1ccc(CNC(=O)COC(=O)c2ccc(OCc3c(C)noc3C)cc2)cc1OC
4%	CCN(CC(=O)Nc1c(F)cccc1F)C(=O)c1cc(C)nc2ccccc12
0%	CCCC(C(=O)OCC)P(=O)(c1ccccc1)c1ccccc1 (stereo not drawn)
-2%	CC1=CCC2C(=O)N(c3ccccc3OC(=O)c3ccccc3F)C(=O)C2C1 (stereo not drawn)
-10%	NS(=O)(=O)c1ccc(CCNC(=O)c2cc(-c3ccccc3)nc3ccccc23)cc1
2%	CCOC(=O)N1CCN(C(=O)c2ccc(CS(=O)Cc3ccccc3Cl)o2)CC1 (stereo not drawn)
2%	Cc1nc2sc(C(c3cccc(F)c3)N3CCN(C(=O)c4ccco4)CC3)c(O)n2n1 (stereo not drawn)
2%	COc1ccc(NS(=O)(=O)c2cc(NC(=O)c3ccncc3)ccc2N2CCOCC2)cc1
-2%	COc1ccc(NC(=O)CS(=O)(=O)c2cn(CC(=O)N3CCCC3)c3ccccc23)c(OC)c1
2%	CCCS(=O)(=O)N1CCC(C(=O)NCc2ccco2)CC1
-1%	Cc1cc2oc(=O)cc(CN3CCOCC3)c2cc1C
0%	O=C(Nc1nc2c(Cl)cccc2s1)C1CC1
-3%	COc1cc(C(=O)NCC(C)C)cc(OC)c1OC
4%	CCn1c(=O)c(C(=O)NCCN2CCCCC2)c(O)c2ccccc21
-9%	CN(C)CCNc1ncnc2c1cnn2-c1ccc(Cl)cc1
-16%	CC1CCN(C(=O)c2ccccc2NC(=O)Nc2ccccc2)CC1
-28%	CC(C)CCOc1ccc(C(=O)NCC(c2ccco2)N(C)C)cc1 (stereo not drawn)
2%	CC1=C(C(=O)Nc2ccccc2C(=O)NC2CCC(C)CC2)SCCO1 (stereo not drawn)
12%	O=C(Nc1ccc(N2CCOCC2)nc1N1CCOCC1)c1cccc(C(F)(F)F)c1
-18%	Nc1cccc(S(=O)(=O)c2ccc(N)c(N)c2)c1

Pulled by compound from the entries so far:
N370S GC mod	Molecule
12%	O=C(Nc1ccc(N2CCOCC2)nc1N1CCOCC1)c1cccc(C(F)(F)F)c1
-18%	Nc1cccc(S(=O)(=O)c2ccc(N)c(N)c2)c1

More entries follow:
N370S GC mod	Molecule
-2%	CC(=O)c1ccc(OCc2cc(C(=O)NCCn3nc(C)cc3C)no2)cc1
-2%	C=CCn1c(SCC(=O)c2ccc(Br)cc2)nnc1C(C)NC(=O)Cc1ccc(OC)cc1 (stereo not drawn)
-1%	COC(=O)CN1CCN(C(c2ccccc2)c2ccccc2)CC1
2%	COc1ccccc1C/C(N)=N/OC(=O)COc1cccc2ccccc12
-2%	COc1ccc(NC(=O)NN2CCN(C)CC2)cc1
-3%	Nc1nc(-c2ccccn2)nc(N)c1Cc1ccc(Cl)cc1Cl
3%	CCCCc1ccc(NC(=O)CSc2nnc(C)c(=O)n2N)cc1
3%	CCN1CCN(C(=S)Nc2ccsc2C(=O)OC)CC1
5%	CCOC(=O)CC(=O)CSc1nc2c(cc1C#N)CCCCCC2
7%	O=C(CCn1c(=O)c2ccccc2n(Cc2cc(=O)n3ccccc3n2)c1=O)NCc1ccco1
0%	CCOc1cc(N2CCOCC2)c(OCC)cc1NC(=O)COC(=O)c1cc(C)cc(C)c1
1%	CCCn1nnc(NC(=O)c2cccc(OCC)c2)n1
1%	Cc1nn(C)c(Cl)c1NC(=O)OCc1ccccc1
?	Nc1nc2nc(-c3ccc(Cl)cc3)cc(C(F)(F)F)n2n1
6%	O=C(Cc1cccs1)Nc1cccc([N+](=O)[O-])c1
6%	Cn1c(CCNC(=O)c2ccccc2)nc2ccccc21
2%	Cc1ccc(-c2csc(N(CCCN(C)C)C(=O)c3ccco3)n2)cc1
1%	COc1cc(C(=O)OCC(=O)NCc2ccccc2)cc(NC(=O)c2ccco2)c1OC
3%	CCc1ccc(OC(C)c2nnc(SCC(=O)Nc3ncccc3C)n2C)cc1 (stereo not drawn)
0%	CC(C)(C)C(=O)NC(=S)NNC(=O)c1ccncc1

2 of the compounds above, with tabs.
molecule	N370S GC mod
Cc1ccc(-c2csc(N(CCCN(C)C)C(=O)c3ccco3)n2)cc1	2%
COc1cc(C(=O)OCC(=O)NCc2ccccc2)cc(NC(=O)c2ccco2)c1OC	1%

Continued.
N370S GC mod	Molecule
-3%	CCOC(=O)c1ccccc1OCc1cc(/C=N/NC(=O)c2cccnc2)ccc1OC
-10%	O=C1NC2=C(C(=O)CCC2)C(c2ccc(OC(F)F)cc2)N1 (stereo not drawn)
-10%	Nc1c(C(=O)NCc2ccccc2)sc2nc3c(cc12)C(=O)CCC3
?	CNCCCC12CCC(c3ccccc31)c1ccccc12
2%	CCOC(=O)Nc1ccc(N2CCOCC2)c(S(=O)(=O)N2CCOCC2)c1
-11%	Cc1ccc(C(CNS(=O)(=O)c2ccc(C)cc2)N2CCN(C)CC2)cc1 (stereo not drawn)
-5%	CC(NC(=O)COC(=O)c1cccs1)c1ccccc1 (stereo not drawn)
-2%	C=CCC(C#Cc1ccccc1)[N+](C)(C)CC=C (stereo not drawn)
4%	COc1ccc(C2C(C(C)=O)=C(O)C(=O)N2CCCn2ccnc2)cc1OC (stereo not drawn)
-19%	Cc1nc2ccccc2n1CC(O)Cn1c2ccccc2c2ccccc21 (stereo not drawn)
-1%	Fc1ccccc1NC(=S)Nc1cccc2cnccc12
3%	CCCn1c(=S)[nH]c2cc(C(=O)N3CCN(c4ccccc4OC)CC3)ccc2c1=O
8%	COc1ccc(C(=O)Nc2cc(C)nn2-c2nc3ccccc3[nH]2)c(OC)c1
-6%	O=C(Nc1cccc(F)c1)Nc1ccnn1C1CCN(C(=O)CCN2CCCO2)CC1
-6%	O=C(Nc1oc2ccccc2c(=O)c1-c1ccc(Br)cc1)c1ccco1
1%	CCOc1ccc(NC(=O)CN(C)S(=O)(=O)c2cccc3cccnc23)cc1
0%	CCN1CCN(C(=O)c2ccc(COc3ccc(Cl)cc3)o2)CC1
-20%	CC(C)Oc1ccc(C(CC(=O)NCCCN(C)C)c2ccc(F)cc2)cc1 (stereo not drawn)
3%	N#CCCN1CCN(S(=O)(=O)c2ccc(S(=O)(=O)NCC3CCCO3)cc2)CC1 (stereo not drawn)
2%	COc1ccc(CC(NC(C)=O)C(=O)NC2CCN(S(=O)(=O)c3ccc(NC(C)=O)cc3)CC2)cc1 (stereo not drawn)

Among those listed so far, these have an aryl thioether with sulfur outside any ring:
N370S GC mod	Molecule
1%	C=CCn1c(SCC(=O)NCCc2ccccc2)nnc1C1CC1
-2%	C=CCn1c(SCC(=O)c2ccc(Br)cc2)nnc1C(C)NC(=O)Cc1ccc(OC)cc1 (stereo not drawn)
3%	CCCCc1ccc(NC(=O)CSc2nnc(C)c(=O)n2N)cc1
5%	CCOC(=O)CC(=O)CSc1nc2c(cc1C#N)CCCCCC2
3%	CCc1ccc(OC(C)c2nnc(SCC(=O)Nc3ncccc3C)n2C)cc1 (stereo not drawn)

Continued.
N370S GC mod	Molecule
7%	CCn1cc(CNC(=O)CCc2ccc(OC)cc2)cn1
-2%	Cc1ccc(F)cc1NC(=O)CCc1c(C)nn(-c2ccc(N3CCCCC3)nn2)c1C
6%	NC(=S)Nc1c(Cl)cccc1Cl
4%	O=C(NCC1CCCO1)C(C(=O)c1ccccc1)n1cc(Cl)ccc1=O (stereo not drawn)
2%	Cc1cc(C(=O)CN2C(=O)NC3(CCCc4sccc43)C2=O)c(C)n1-c1ccc(Cl)cc1 (stereo not drawn)
8%	CC1(C)SC2c3ccccc3C(=O)N2[C@@H]1C(=O)NC1CC1 (stereo partly drawn)
-7%	OCCNC(=S)Nc1cc(Cl)cc(Cl)c1
-6%	Cc1ccccc1Nc1c(-c2ccncc2)nc2ccc(Cl)cn12
-3%	COc1ccc(-c2cc3c(=O)n(CC(=O)NC4CCN(Cc5ccccc5)CC4)ncn3n2)cc1
1%	COc1ccc(C(c2nnnn2Cc2cccs2)N2CCN(c3ccccc3F)CC2)cc1 (stereo not drawn)
3%	Cc1nn(CCCNC(=O)C2CCCO2)cc1Br (stereo not drawn)
-5%	O=C(Nc1ccc(OC(F)(F)F)cc1)c1[nH]ncc1[N+](=O)[O-]
-4%	Cc1ccc(S(=O)(=O)N2CCOCC2)cc1C(=O)OCCOc1cccc(Cl)c1
0%	COc1cc(CN2CCNC(=O)C2CC(=O)O)cc(OC)c1 (stereo not drawn)
4%	Cc1nnsc1NC(=O)OCC(C)(C)C
4%	Cc1cc([N+](=O)[O-])nn1Cn1nc([N+](=O)[O-])cc1C
4%	Cc1ccc(NC2=NCC(=O)N2Cc2ccccc2)c(C)c1
17%	Cc1cccc(Cn2cccc2/C=C2/C(=N)N3C=CSC3=NC2=O)c1
-15%[21.6 µM]	CCN(CC)CCOC(=O)[C@@H](Cc1cccc2ccccc12)C[C@@H]1CCCO1
-5%	COc1ccc(C(=O)/C=C/Nc2c(C)n(C)n(-c3ccccc3)c2=O)c(OC)c1
-9%	Cc1ccc(-c2nc3cc(N)ccc3o2)c(C)c1
2%	CC(=O)c1cnc(-c2ccccn2)s1
-12%	O=C(N/N=C\c1cc2c(cc1[N+](=O)[O-])OCO2)c1cccs1
0%&-2%	Nc1ccn([C@@H]2CS[C@H](CO)O2)c(=O)n1
9%	Fc1ccc(-c2nnc3ccccn23)cc1
-4%	COc1cc(C(=O)Sc2ccc(C)cc2)cc(OC)c1OC
0%	CC1C/C(=N/Nc2ccc([N+](=O)[O-])cc2[N+](=O)[O-])CC(C)(C)C1 (stereo not drawn)
3%	CNC(=S)Nc1ccc(OC)c(OC)c1
-2%	COc1ccc(CN2CCNC(=O)C2CC(=O)NCCc2nc(C)c3c(n2)CCC3)cc1C (stereo not drawn)
-12%	CCn1cc([N+](=O)[O-])c(C(=O)N2N=C(c3ccc4ccccc4c3)CC2c2ccccc2O)n1 (stereo not drawn)
3%	CCCn1c(C)cc(C(=O)CSc2nc3ccccc3c(=O)n2Cc2ccco2)c1C
-21%	CCc1ccc(NS(=O)(=O)c2cc3c4c(c2)CCN4C(=O)CC3)cc1
20%	CCCCn1c(=S)[nH]c2ccccc2c1=O
3%	O=C(CCNS(=O)(=O)c1cccc2nonc12)NC1CCCCCC1
7%	COc1ccc(CNC(=O)C/C(C)=N/NC(=O)C23CC4CC(CC(C4)C2)C3)cc1
-18%	Cc1cccc(/C=C2\Sc3ccc(C(=O)N4CCC(C(N)=O)CC4)cc3N(C)C2=O)c1
8%	Cc1ccc(CS(=O)(=O)CCC(=O)NCCN2CCCCC2C)cc1 (stereo not drawn)
-1%	O=C(CSc1nnc(CNC(=O)c2ccco2)o1)NC1CCCC1
-13%	COc1ccc(/C=N/NC(=O)c2ccc(-c3ccccc3)cc2)cc1O
-6%	O=S(=O)(NC1CCCCC1)c1ccc(S(=O)(=O)N2CCN3CCCC3C2)cc1 (stereo not drawn)
-4%	O=C(Nc1ccc2c(c1)OCCO2)NC1(C(F)(F)F)Oc2ccccc2O1
-8%	O=C(CCNC(=O)c1ccc(Cl)cc1)Nc1ccc(S(=O)(=O)N2CCCCC2)cc1
-5%	CC1CCN(C(=O)c2ccc(N(C)S(C)(=O)=O)cc2)CC1
1%	CC(=O)Nc1ccc(NC(=O)CSc2nnc(NC(=O)C3CC3)s2)cc1
-2%	CCOC(=O)Cc1csc(NS(=O)(=O)c2ccc(Br)cc2)n1
2%	COc1ccc(CN2C(=O)NC3(CCCc4ccccc43)C2=O)cc1F (stereo not drawn)
3%	Nc1nonc1C(=O)N/N=C/c1ccc(-c2ccc(Cl)c(C(=O)O)c2)o1
7%	CCN1C(=O)N(C)C2(c3ccccc3)N(C)C(=O)N(C)C12c1ccccc1 (stereo not drawn)
21%	Cc1cccc(C)c1NC(=S)NCCCN1CCCC1=O
3%	COC(=O)c1sc(NC(=O)CSc2nnc(C(C)C)n2C)nc1C

(listing goes on)
N370S GC mod	Molecule
29%	Cc1ccc(NC(=O)O/N=C2\CCCCC2c2ccc([N+](=O)[O-])cc2[N+](=O)[O-])cc1 (stereo not drawn)
-11%	COc1ccccc1NC(=O)C(C)OC(=O)c1nc2nc(C)cc(C)n2n1 (stereo not drawn)
3%	O=C(CNC(=O)c1ccccc1F)N/N=C\C=C\c1ccccc1
-13%	O=C(Nc1ccc(N2CCN(Cc3ccccc3F)CC2)cc1)c1ccc([N+](=O)[O-])o1
-1%	COCCNC(=S)NNC(=O)c1cc(-c2cccnc2)nc2ccccc12
1%	COc1ccccc1N1CCN(C(=S)NC(=O)/C=C/c2ccccc2)CC1
-11%	Nc1nc2c(ncn2COCCO)c(=O)[nH]1
-16%	CC(=O)N1CCC(=NNS(=O)(=O)c2ccc(C)c([N+](=O)[O-])c2)CC1
-4%	COc1cc(C=NCC2OCCc3ccccc32)cc(OC)c1 (stereo not drawn)
-9%	CC(C)(C)S(=O)(=O)c1ccc2nc3c(n2c1)CCCC3
10%	COCc1cc(C)nc(SCC(=O)N2CCC(C)CC2)c1C#N
8%	CC(C)C(NS(=O)(=O)c1cccs1)C(=O)NCc1ccc2c(c1)OCO2 (stereo not drawn)
-22%	COc1ccc(CNC(=O)C2CCN(c3nc(-c4ccccc4)nc4c3CCC4)CC2)cc1

Some of the compounds tested, and most or all hits are left out here.
